# STAT3 binder: STAT3 binders, primary screen, biochemical, small molecule microarray, single point, set 2; actives 0.2% (n = 17,000); calls only; Signal transducer and activator of transcription 3 (Homo sapiens), P40763; His-STAT3 binding, anti-His fluorescence;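 active = compounds whose four printed spots each show fluorescence over background unusually high for their array block, chance value under 7%; compounds were printed on slides so no solution concentration is given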;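 note: about 2 pmol printed per array spot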
# p53 mut binder: binders of human mutant p53, primary screen, biochemical, small molecule microarray, anti-GST fluorescence. mutant tumor protein p53 (GST-tagged), Homo sapiens. small molecule microarray binding. calls only. actives 0.4% (n = 17,000);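 active = compounds whose four printed spots each glow above background more than chance allows, each with a p-value under 7%; compounds were printed on slides so no solution concentration is given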;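 note: about 2 pmol printed per array spot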
# c-Myc SMM: binders of human c-Myc, primary screen, biochemical, small molecule microarray, anti-His fluorescence. Myc proto-oncogene protein (Homo sapiens), P01106. His-c-Myc binding. calls only. actives 1.5% (n = 17,000);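 active = spot fluorescence over background with P-value below 7% in all four replicate spots, showing protein binding; compounds were printed on slides so no solution concentration is given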;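 note: score is binary with 100 for all four spots passing and 0 otherwise; about 2 pmol printed per array spot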
# Target sequence (P01106 whole entry, looked up): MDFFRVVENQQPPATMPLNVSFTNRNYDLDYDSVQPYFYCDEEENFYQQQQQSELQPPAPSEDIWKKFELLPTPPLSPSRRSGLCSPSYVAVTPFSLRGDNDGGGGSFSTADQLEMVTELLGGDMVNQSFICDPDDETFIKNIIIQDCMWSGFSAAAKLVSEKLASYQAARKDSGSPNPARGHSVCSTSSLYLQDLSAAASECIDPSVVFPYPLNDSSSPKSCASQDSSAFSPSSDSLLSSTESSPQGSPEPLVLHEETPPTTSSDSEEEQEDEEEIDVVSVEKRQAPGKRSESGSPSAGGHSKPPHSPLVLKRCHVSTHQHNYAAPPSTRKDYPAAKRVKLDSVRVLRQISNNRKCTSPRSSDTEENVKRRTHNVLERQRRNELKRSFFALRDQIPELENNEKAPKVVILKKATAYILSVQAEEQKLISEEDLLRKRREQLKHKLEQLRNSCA
# ID4 binder: binders of human ID4 protein, primary screen, biochemical, small molecule microarray, single point; calls only; actives 1.2% (n = 31,000); DNA-binding protein inhibitor ID-4 (Homo sapiens), P47928; Flag-ID4 binding, fluorescence F/B;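 active = spot signal over background at p below 0.07 in all four prints; compounds were printed on slides so no solution concentration is given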;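 note: a binder raises fluorescence above local background on the spot; about 2 pmol printed per array spot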
# Target sequence (P47928 whole entry, looked up): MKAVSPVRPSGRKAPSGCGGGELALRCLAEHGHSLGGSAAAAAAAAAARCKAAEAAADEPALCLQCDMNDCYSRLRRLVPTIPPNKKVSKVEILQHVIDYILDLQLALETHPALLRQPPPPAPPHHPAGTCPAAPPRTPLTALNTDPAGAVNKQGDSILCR
# Calls only; i = inactive; x = not tested or not shown; + = active, no number. The list is partial; the hit share may differ from the screen's.
nr	Structure	STAT3 binder	p53 mut binder	c-Myc SMM	ID4 binder
1	O=C(CCSc1nnnn1-c1ccccc1)N1CCOCC1	i	i	i	i
2	COc1cc(C(=O)Nc2ccc(S(=O)(=O)Nc3nccs3)cc2)cc(OC)c1OC	i	i	i	i
3	C[C@@H]1CN([C@@H](C)CO)C(=O)Cc2cc(NC(=O)CCCN(C)C)ccc2O[C@H]1CN(C)C	i	i	i	i
4	Cc1c(-c2ccccc2)oc2c(C(=O)OCCN3CCCCC3)cccc2c1=O	i	i	i	i
5	C[C@@H]1CCCCO[C@H](CN(C)C(=O)CCCN(C)C)[C@@H](C)CN([C@@H](C)CO)C(=O)c2cc(N(C)C)ccc2O1	i	i	i	i
6	C[C@@H]1CN([C@H](C)CO)C(=O)Cc2cc(NC(=O)Nc3cccc4ccccc34)ccc2O[C@H]1CN(C)C(=O)NC1CCCCC1	i	i	i	i
7	C=C1CC[C@@H]2C(C)(C)C[C@@H](O)C[C@@]2(C)[C@@H]1CC/C(=C/C(=O)OC)COC(C)=O	i	i	i	x
8	CC1(C)Cc2c(c(N3CCCC3)nc3sc4c(NCc5ccco5)ncnc4c23)CO1	i	i	i	i
9	C[C@H](CO)N1C[C@H](C)[C@H](CN(C)Cc2ccc(Oc3ccccc3)cc2)Oc2c(NC(=O)C3CCOCC3)cccc2C1=O	i	i	i	i
10	COc1ccc(S(=O)(=O)Nc2ccc3c(c2)C(=O)N([C@H](C)CO)C[C@H](C)[C@@H](CN(C)S(=O)(=O)c2ccc(OC)cc2)OCCCC[C@@H](C)O3)cc1	i	i	i	x
11	Cc1noc(C)c1NC(=O)N(C)C[C@H]1Oc2ccc(NC(=O)Cc3ccccc3)cc2C(=O)N([C@@H](C)CO)C[C@H]1C	i	i	i	i
12	C[C@H](CO)N1C[C@H](C)[C@H](CN(C)C(=O)Nc2cccc3ccccc23)Oc2ccc(NS(=O)(=O)c3ccccc3)cc2CC1=O	i	i	i	i

# Full records as entered above. Order of screens: STAT3 binder | p53 mut binder | c-Myc SMM | ID4 binder
# `Cc1c(-c2ccccc2)oc2c(C(=O)OCCN3CCCCC3)cccc2c1=O` as listed: i | i | i | i
# `C[C@@H]1CN([C@@H](C)CO)C(=O)Cc2cc(NC(=O)CCCN(C)C)ccc2O[C@H]1CN(C)C` as listed: i | i | i | i

# Next section
nr	Structure	STAT3 binder	p53 mut binder	c-Myc SMM	ID4 binder
13	O=C(COc1ccc(C2CCCCC2)cc1)Nc1cccc(-c2nc3ncccc3o2)c1	i	i	i	i
14	C[C@@H]1CN([C@H](C)CO)C(=O)c2cccc(NC(=O)C3CCOCC3)c2O[C@@H]1CN(C)S(=O)(=O)c1ccc(Cl)cc1	i	i	i	i
15	O=C(OCC1=C[C@@H](O)[C@@H]2C=CO[C@@H](O[C@@H]3O[C@H](CO)[C@@H](O)[C@H](O)[C@H]3O)[C@H]12)c1ccc(O)cc1	i	i	i	i
16	CCO[C@@H]1OC(C(=O)NCc2ccccc2)=C[C@H](C(C)(C)C)[C@H]1CCCO	i	i	i	x
17	COc1cccc(C=NC=Nc2cccc(OC)c2)c1	i	i	i	i
18	Cc1ccc(NC(=O)CNS(=O)(=O)c2ccccc2)c(C)c1	i	i	i	i
19	C[C@@H]1CCCCO[C@@H](CN(C)C(=O)Nc2cccc3ccccc23)[C@H](C)CN([C@H](C)CO)C(=O)c2cc(N(C)C)ccc2O1	i	i	+	i
20	CO[C@H]1O[C@H](CO)[C@@H](OC(=O)Nc2ccccc2)[C@H](OC(=O)Nc2ccc3c(c2)OCO3)[C@@H]1OC(=O)Nc1ccc2c(c1)OCO2	i	i	i	x
21	C/C=C1/[C@H](O[C@@H]2O[C@H](CO)[C@@H](O)[C@H](O)[C@H]2O)OC=C(C(=O)OC)[C@H]1CC(=O)OCCc1ccc(O)cc1	i	i	i	i
22	CO[C@H]1C[C@H](O[C@H]2[C@H](C)[C@@H](O[C@@H]3O[C@H](C)C[C@H](N(C)C)[C@@H]3OC(C)=O)[C@@H](C)C[C@]3(CO3)C(=O)[C@H](C)[C@@H](OC(C)=O)[C@@H](C)[C@@H](C)OC(=O)[C@@H]2C)O[C@@H](C)[C@@H]1OC(C)=O	i	i	i	x
23	C[C@@H]1CN([C@H](C)CO)C(=O)c2cc(NC(=O)CCCN(C)C)ccc2O[C@@H](C)CCCCO[C@@H]1CN(C)S(=O)(=O)c1ccccc1	i	i	i	i
24	Cc1cc(C)c(OCC(O)Cn2cnc3ccccc32)c(C)c1 (stereo unspecified)	i	i	i	i

# Further records.
nr	Structure	STAT3 binder	p53 mut binder	c-Myc SMM	ID4 binder
25	COc1ccc(OCC(=O)Nc2ccc(NC(=O)c3ccco3)c(OC)c2)cc1	i	i	i	i
26	COc1ccc(CN(C)C[C@@H]2Oc3c(NC(=O)Nc4ccc(F)cc4)cccc3C(=O)N([C@@H](C)CO)C[C@H]2C)cc1	i	i	i	i
27	COc1ccc(NC(=O)Nc2ccc3c(c2)C(=O)N([C@H](C)CO)C[C@H](C)[C@@H](CN(C)Cc2ccc(Cl)c(Cl)c2)O3)cc1	i	i	i	x
28	C[C@H]1CCCCO[C@@H](CN(C)Cc2ccncc2)[C@@H](C)CN([C@@H](C)CO)C(=O)c2cc(NC(=O)Nc3ccccc3)ccc2O1	i	i	i	i
29	O=[N+]([O-])c1ccc(NCCNc2nc3ccccc3nc2N2CCOCC2)cc1	i	i	i	i
30	Cc1noc(C)c1NC(=O)N(C)C[C@H]1Oc2ccc(NS(=O)(=O)c3cn(C)cn3)cc2C(=O)N([C@@H](C)CO)C[C@@H]1C	i	i	i	i
31	COc1ccc([N+](=O)[O-])cc1NC(=O)CCN1CCOCC1	i	i	i	i
32	CCOc1ccc(-n2cnnn2)cc1S(=O)(=O)NCc1ccccc1	i	i	i	i
33	C[C@@H]1CN([C@@H](C)CO)C(=O)c2cc(NS(C)(=O)=O)ccc2O[C@H]1CN(C)Cc1ccccc1	i	i	i	i
34	CCc1nnc(NS(=O)(=O)c2ccc(N)cc2)s1	i	i	i	i
35	Cc1noc(C)c1NC(=O)N(C)C[C@H]1Oc2ccc(NS(=O)(=O)c3cn(C)cn3)cc2C(=O)N([C@@H](C)CO)C[C@H]1C	i	i	i	i
36	C[C@H](CO)N1C[C@H](C)[C@@H](CN(C)Cc2ccccc2)Oc2ccc(NS(=O)(=O)c3cn(C)cn3)cc2C1=O	i	i	i	i

# Next records follow:
nr	Structure	STAT3 binder	p53 mut binder	c-Myc SMM	ID4 binder
37	COc1ccc(NC(=O)CSc2ncnc3sc4c(c23)CCC(C)C4)c([N+](=O)[O-])c1 (stereo unspecified)	i	i	i	i
38	O=C(CSc1nnnn1-c1cccc2ccccc12)c1ccc(O)c(O)c1	i	i	i	i
39	Cc1ccc(S(=O)(=O)CC(CN2CCOCC2)N2CCOCC2)cc1 (stereo unspecified)	i	i	i	i
40	O=S(=O)(N[C@@H]1CCCN(Cc2cccc(OCCO)c2)C1)c1ccc(-c2ccccc2)cc1	i	i	i	i
41	CCOC(=O)c1c(NC(=O)C(C)Oc2ccccc2)sc(C)c1C (stereo unspecified)	i	i	i	i
42	C[C@@H]1CN([C@@H](C)CO)C(=O)c2cc(NC(=O)Nc3ccc4c(c3)OCO4)ccc2O[C@H]1CN(C)S(=O)(=O)c1cn(C)cn1	i	i	i	i
43	CC(C)NC(=O)N(C)C[C@@H]1Oc2ccc(NS(=O)(=O)c3cccs3)cc2CC(=O)N([C@H](C)CO)C[C@H]1C	i	i	i	i
44	COc1ccc(S(=O)(=O)N(C)C[C@@H]2Oc3c(NS(=O)(=O)c4cccs4)cccc3C(=O)N([C@@H](C)CO)C[C@@H]2C)cc1	i	i	i	i
45	C[C@H]1CCCCO[C@H](CN(C)Cc2ccncc2)[C@@H](C)CN([C@@H](C)CO)C(=O)c2cc(NS(C)(=O)=O)ccc2O1	i	i	i	i
46	C[C@@H]1CCCCO[C@@H](CN(C)Cc2ccc(C(=O)O)cc2)[C@H](C)CN([C@H](C)CO)C(=O)c2cc(NC(=O)Nc3ccc(C(F)(F)F)cc3)ccc2O1	i	i	i	x
47	Cc1cc(C)n(C(=O)c2ccc(COc3c(F)c(F)cc(F)c3F)o2)n1	i	i	i	i
48	COc1ccc(CN(C)C[C@H]2Oc3ccc(NC(=O)C4CC4)cc3C(=O)N([C@@H](C)CO)C[C@H]2C)cc1	i	i	i	i

# New compounds follow.
nr	Structure	STAT3 binder	p53 mut binder	c-Myc SMM	ID4 binder
49	O=C(CC1(O)C(=O)Nc2ccccc21)c1ccc(-n2cccc2)cc1 (stereo unspecified)	i	i	i	i
50	C[C@@H]1CN([C@@H](C)CO)C(=O)c2cccc(NC(=O)C3CCOCC3)c2O[C@@H]1CN(C)Cc1ccc(Cl)c(Cl)c1	i	i	i	i
51	C[C@H]1CN([C@@H](C)CO)C(=O)c2cccc(NC(=O)c3ccc(-c4nccs4)cc3)c2O[C@H]1CN(C)CC1CC1	i	i	i	i
52	C[C@H]1CN([C@@H](C)CO)C(=O)Cc2cc(NC(=O)Nc3ccccc3)ccc2O[C@@H]1CN(C)C(=O)Nc1ccccc1	i	i	i	i
53	C[C@@H]1CN([C@H](C)CO)C(=O)c2cc(N(C)C)ccc2O[C@@H]1CN(C)C	i	i	i	i
54	Cc1noc(C)c1NC(=O)Nc1ccc2c(c1)C(=O)N([C@H](C)CO)C[C@H](C)[C@H](CN(C)C)O2	i	i	i	i
55	C[C@@H]1CN([C@@H](C)CO)C(=O)Cc2cc(NC(=O)CCN3CCOCC3)ccc2O[C@@H]1CN(C)CC1CC1	i	i	i	x
56	CNC[C@H]1Oc2c(N)cccc2C(=O)N([C@H](C)CO)C[C@@H]1C	i	i	i	i
57	C[C@H](CO)N1C[C@H](C)[C@H](CN(C)C(=O)Nc2ccc3c(c2)OCO3)Oc2ccc(NS(C)(=O)=O)cc2CC1=O	i	i	i	x
58	Cn1c(=O)n(C)c2cc(CNCc3cccnc3)ccc21	i	i	i	i
59	COC(=O)N(C)C[C@H]1OCc2cn(nn2)CCCC(=O)N([C@@H](C)CO)C[C@@H]1C	i	i	i	i
60	Cc1noc(C)c1NC(=O)Nc1ccc2c(c1)C(=O)N([C@@H](C)CO)C[C@H](C)[C@H](CN(C)S(=O)(=O)c1cccs1)OCCCC[C@@H](C)O2	i	i	i	i

# Some of the entries so far, with values under each structure.
# Order of results: STAT3 binder | p53 mut binder | c-Myc SMM | ID4 binder
(31) COc1ccc([N+](=O)[O-])cc1NC(=O)CCN1CCOCC1
 : i | i | i | i
(32) CCOc1ccc(-n2cnnn2)cc1S(=O)(=O)NCc1ccccc1
 : i | i | i | i
(33) C[C@@H]1CN([C@@H](C)CO)C(=O)c2cc(NS(C)(=O)=O)ccc2O[C@H]1CN(C)Cc1ccccc1
 : i | i | i | i
(34) CCc1nnc(NS(=O)(=O)c2ccc(N)cc2)s1
 : i | i | i | i

# (list continues)
nr	Structure	STAT3 binder	p53 mut binder	c-Myc SMM	ID4 binder
61	C[C@H](CO)N1C[C@H](C)[C@@H](CN(C)C(=O)Nc2ccccc2)Oc2ccc(NC(=O)NC3CCCCC3)cc2CC1=O	i	i	i	i
62	CC(C)NC(=O)N(C)C[C@H]1Oc2ccc(NS(=O)(=O)c3cn(C)cn3)cc2CC(=O)N([C@@H](C)CO)C[C@H]1C	i	i	i	i
63	COc1ccc(S(=O)(=O)N(C)C[C@H]2Oc3ccc(NC(=O)c4ccncc4)cc3C(=O)N([C@H](C)CO)C[C@@H]2C)cc1	i	i	i	i
64	Cc1ccc([N+](=O)[O-])cc1NC(=O)CSc1nnnn1C1CC2CCC1C2 (stereo unspecified)	i	i	i	i
65	CCOC(=O)C1=C(Cn2cnc3ccccc32)NC(=O)NC1c1cc(C)ccc1C (stereo unspecified)	i	i	i	i
66	C[C@@H]1CN([C@H](C)CO)C(=O)Cc2cc(NC(=O)c3ccncc3)ccc2O[C@@H]1CN(C)CC1CC1	i	i	i	i
67	C[C@@H]1CN([C@H](C)CO)C(=O)c2cc(NC(=O)CCC(F)(F)F)ccc2O[C@@H](C)CCCCO[C@H]1CN(C)C(=O)Nc1ccccc1	i	i	i	i
68	C=C1[C@H](O)C[C@H]2[C@@H](/C=C(\C)C(=O)[C@@]3(O)C[C@H](C)[C@H](O)[C@@H]3[C@H]1O)C2(C)C	i	i	i	x
69	Cc1noc(C)c1S(=O)(=O)N(C)C[C@H]1Oc2ccc(N(C)C)cc2CC(=O)N([C@@H](C)CO)C[C@H]1C	i	i	i	i
70	C[C@H](CO)N1C[C@H](C)[C@@H](CN(C)Cc2ccc(-c3ccccc3)cc2)Oc2ccc(NS(=O)(=O)c3cccs3)cc2CC1=O	i	i	i	x
71	COc1ccc(-c2cc(=O)c3c(OC)c(OC)c(OC)c(OC)c3o2)cc1OC	i	x	i	i
72	Cc1ccc(S(=O)(=O)Nc2ccc3c(c2)C(=O)N([C@@H](C)CO)C[C@@H](C)[C@H](CN(C)Cc2ccc(C(=O)O)cc2)OCCCC[C@@H](C)O3)cc1	i	i	i	x
73	C[C@H]1CN([C@@H](C)CO)C(=O)c2cccc(NC(=O)NC3CCCCC3)c2O[C@H]1CN(C)C(=O)NC1CCCCC1	i	i	+	i
74	CCc1ccc(OCC(=O)NC(=S)Nc2cccc3nsnc23)cc1	i	i	i	i
75	Cc1noc(C)c1S(=O)(=O)N(C)C[C@H]1Oc2c(NC(=O)c3nc4ccccc4s3)cccc2C(=O)N([C@H](C)CO)C[C@H]1C	i	i	i	i

# Screening data deposited in PubChem by Broad Institute.
